Screening data from PubChem BioAssay.
Mtb betalactam = beta-lactam sensitization of Mtb H37Rv; M. tuberculosis H37Rv growth with meropenem, percent inhibition; hits of this screen are not shown here; inhibition, % at 25 µM; hit rate 0.27% among 330,000; AID 434955;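 active means about 74% or more and at least 40 points above the plate without the antibiotic, then above 30% in a dose series; inconclusive means first-round hits that could not be retested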;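 further: growth measured after seven days incubation then overnight dye step; 0% = bacteria only wells and 100% = bacteria with antibiotic; twin plates without the antibiotic show which effects depend on it; some results filed as inactive read as strong as hits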
RecA intein inh = inhibitors of M. tuberculosis RecA intein splicing; cell-free RecA intein splicing, fluorescence; AID 2221; P9WHJ3; inhibition, %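 (about 9 µM by stock and volumes)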; hit rate 0.75% among 290,000; in the data active means inhibition above about 30%; inconclusive means no clear call, values can overlap the other calls;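 further: 0% = vehicle wells and 100% = reference inhibitor control wells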
Target sequence (P9WHJ3 whole entry, looked up): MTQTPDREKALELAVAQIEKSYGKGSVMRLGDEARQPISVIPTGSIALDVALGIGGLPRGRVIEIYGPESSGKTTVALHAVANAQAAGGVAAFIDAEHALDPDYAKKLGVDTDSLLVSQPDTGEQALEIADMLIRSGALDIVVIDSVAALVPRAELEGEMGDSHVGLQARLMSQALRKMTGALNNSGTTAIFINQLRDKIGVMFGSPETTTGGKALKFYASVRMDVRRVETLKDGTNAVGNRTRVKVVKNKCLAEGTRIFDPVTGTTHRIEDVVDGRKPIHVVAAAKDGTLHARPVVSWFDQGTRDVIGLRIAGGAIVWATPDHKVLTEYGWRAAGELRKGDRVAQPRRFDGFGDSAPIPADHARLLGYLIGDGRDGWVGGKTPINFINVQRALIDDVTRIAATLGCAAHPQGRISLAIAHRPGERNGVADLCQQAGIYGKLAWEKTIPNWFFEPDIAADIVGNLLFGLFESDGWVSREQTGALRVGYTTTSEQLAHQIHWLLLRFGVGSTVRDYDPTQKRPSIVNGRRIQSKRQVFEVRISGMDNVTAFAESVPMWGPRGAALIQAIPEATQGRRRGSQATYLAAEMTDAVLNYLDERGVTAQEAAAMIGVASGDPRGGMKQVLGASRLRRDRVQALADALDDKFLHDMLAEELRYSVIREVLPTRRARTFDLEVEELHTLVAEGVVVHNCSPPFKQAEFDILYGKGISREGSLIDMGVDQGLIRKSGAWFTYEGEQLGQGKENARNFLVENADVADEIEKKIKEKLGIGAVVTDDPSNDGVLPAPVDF
Mtb H37Rv = M. tuberculosis H37Rv growth inhibitors, H37Rv strain (AID 1626); M. tuberculosis H37Rv growth inhibition; higher % means a stronger effect; hit rate 0.95% among 220,000; inhibition, % at 10 µM; hits with a dose series show IC50 in µM;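 active means confirmed in a dose series; inconclusive means inhibition above 80% but not taken into the dose series; inactive means below 80% or under 30% at every dose of the series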;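 further: bacteria incubated seven days before Alamar blue readout; 0% = bacteria only wells and 100% = bacteria with antibiotic wells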
Arbovirus anti = blocks arbovirus infection; arbovirus infection cell-based antiviral screen; inhibition, % at 10 µM; hit rate 0.37% among 200,000; AID 1251;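 active means inhibition from about 30%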;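 further: bluetongue infection of BSR cells; cell survival read as ATP light after 72 h; 0% = infected wells without compound and 100% = uninfected wells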
YopH PTP inh = YopH (Yersinia) phosphatase inhibition; inhibition, %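 (about 10 µM by stock and volumes)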; fluorescence Ex485/Em525; hit rate 0.16% among 140,000;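 active means inhibition of 50% or more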;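 further: controls were vehicle for no effect and minimum signal wells for full effect; inactives centre near -20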
Arbovirus anti repeat = also measured in Arbovirus anti; calls as there; inhibition, %; measured here: 10K subset replicate screen; many hits read low in the repeat;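 first of two repeat runs on a subset; 0% = infected and 100% = uninfected wells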
Starred values were filed as active, the others as inactive; ? = inconclusive; nt = no result given; & = joins results of further samples. Only part of the results is shown, so the mix of outcomes need not match the whole.

Preview, 5 compounds:
SMILES | Mtb betalactam | RecA intein inh | Mtb H37Rv | Arbovirus anti | YopH PTP inh | others
COC(=O)C1(C)NC(c2ccccc2F)C2C(=O)N(c3ccccc3)C(=O)C21 (stereo unspecified) | 5 | -2.4 | nt | nt | nt
CN(C)CC(=O)Nc1ccc(S(N)(=O)=O)cc1 | -2 | -0.3 | -4% | 13 | 7
O=c1[nH]c(CSc2nc(-c3ccccc3)cs2)nc2ccccc12 | 12 | -4.1 | 7% | 2 | -25
Cc1cccc(N=Nc2ccc(O)c3ncccc23)c1 | 93 | 2.1 | ? | -30 | 0
CC(C)(C)c1ccccc1OCC(=O)NCCC(=O)O | 4 | -0.2 | -11% | -4 | -34

The list itself (from the top)
SMILES | Mtb betalactam | RecA intein inh | Mtb H37Rv | Arbovirus anti | YopH PTP inh | others
COC(=O)C1(C)NC(c2ccccc2F)C2C(=O)N(c3ccccc3)C(=O)C21 (stereo unspecified) | 5 | -2.4 | nt | nt | nt
CN(C)CC(=O)Nc1ccc(S(N)(=O)=O)cc1 | -2 | -0.3 | -4% | 13 | 7
O=c1[nH]c(CSc2nc(-c3ccccc3)cs2)nc2ccccc12 | 12 | -4.1 | 7% | 2 | -25
Cc1cccc(N=Nc2ccc(O)c3ncccc23)c1 | 93 | 2.1 | ? | -30 | 0
CC(C)(C)c1ccccc1OCC(=O)NCCC(=O)O | 4 | -0.2 | -11% | -4 | -34
O=c1[nH]c(CSc2nnc(-c3ccccc3)n2C2CCCCC2)nc2ccccc12 | nt | 0.3 | 2% | 0 | -18
CC(C)(C)c1ccc(C(=O)NCC(=O)N2CCCCCC2)cc1 | 5 | 1.1 | nt | nt | nt
Cc1onc(-c2c(F)cccc2Cl)c1C(=O)NC1=NCCS1 | -11 | 0.1 | 2% | 2 | -58
COCC(=O)N(Cc1cc2cc(C)ccc2[nH]c1=O)c1ccccc1 | -7 | 1.2 | nt | nt | nt
CN(C)C(=O)CSc1nc2ccc(C(=O)c3ccccc3)cc2[nH]1 | 1 | -0.7 | nt | nt | nt
COc1ccc(OC)c(Nc2nc(-c3sc(NC(=O)C(C)(C)C)nc3C)cs2)c1 | -9 | 1.6 | 1% | -14 | -28
CCOC(=O)C1CCN(C(C)C(=O)c2c[nH]c3ccccc23)CC1 (stereo unspecified) | -8 | 0.3 | nt | nt | nt
Cc1occc(=O)c1OCc1c(Cl)cccc1Cl | -9 | -0.1 | nt | nt | nt
O=C(CN(C(=O)CNS(=O)(=O)c1ccccc1)c1ccc(Cl)cc1)NCC1CCCO1 (stereo unspecified) | -3 | 1.5 | nt | nt | nt
Cc1ccc(S(=O)(=O)Nc2c(C)n(C)n(-c3ccccc3)c2=O)cc1 | 1&-4 | -0.2&1.8 | 6%&-4% | -3&9 | -20
O=C(O)c1cc(-c2ccc(Br)s2)nc2ccccc12 | 14 | -6.8 | nt | nt | nt
O=S1(=O)C[C@@H](N2CCOCC2)[C@H](N2CCOCC2)C1 | -6 | 0.2 | -12% | -3 | -12
C/C(=N\NC(=O)c1cccc(O)c1)c1cccc(NC(=O)c2ccc(F)cc2)c1 | 2 | 2.9 | nt | nt | nt
Cc1cccc(C)c1NC(=O)CN(C)C(=O)Cn1c(=O)cnc2ccccc21 | -16 | -8.1 | nt | nt | nt
COc1cc(NC(=O)c2cccs2)c(OC)cc1NC(=O)CCC(=O)Nc1ccc(C)cc1 | 3 | -1.3 | nt | nt | nt
Cc1nnc(SCC(=O)N2CCOCC2)[nH]c1=O | -9 | 0.0 | 1% | 6 | -38
COc1ccc(CC(=O)OCn2nnc3ccccc3c2=O)cc1 | 99 | -0.6 | ? | 6 | -28
N#C/C(=C\c1cn(-c2ccccc2)nc1-c1cc2ccccc2o1)c1nc2ccccc2[nH]1 | 16 | -7.6 | 78% | -15 | -18
Cn1nnnc1SCc1ccccc1[N+](=O)[O-] | -9 | -0.5 | -5% | 6 | -45
CCOC(=O)CN(C(=O)Cn1nnc(-c2ccc(OC)cc2)n1)C(C(=O)NC1CCCC1)c1ccc(F)cc1 (stereo unspecified) | 2 | nt | 7% | -5 | 10
COc1cccc(C(=O)CN2C3=NCCCN3c3ccccc32)c1 | -4 | 2.6 | 2% | 21 | -35
COc1ccc(-c2csc(CCN3N=C(C)CC3=O)n2)cc1 | 2 | 86* | 1% | -3 | nt
Cc1cc(Oc2ccc(=O)n(C)n2)nc(Oc2ccc(=O)[nH]n2)n1 | -15 | -1.8 | -4% | -1 | -37
CCOC(=O)c1[nH]c(C)c(C(=O)NCc2cccnc2)c1C | ? | 0.3 | -2% | 4 | 4
Cc1cccc(COCC(CC(C)C)N2CCN(C(=O)c3ccc(C(F)(F)F)cc3)CCC2=O)c1 (stereo unspecified) | 3 | 6.9 | -1% | -17 | 14
C/C(Cc1ccccc1)=N\NC(=O)CNC(=O)c1ccccc1F | 0 | -3.5 | nt | nt | nt
Cc1nn(CCC(=O)Nc2cccc(C#N)c2)c(C)c1S(=O)(=O)N1CCCCC1 | 1 | -0.6 | nt | nt | nt
Cc1cccc2cncc(OCc3nnc(SC(F)F)n3C)c12 | -9 | -0.5 | -1% | 12 | nt
COc1cc(C(=O)NNC(=S)NC(=O)c2ccc(Cl)cc2)cc(OC)c1OC | 94 | -5.0 | ? | -22 | -28
Cn1cc(SCC(=O)N2CCOCC2)c2ccccc21 | -7 | 1.2 | 4% | -4 | -46
Cc1ccc(NCC(=O)Nc2cccc(S(=O)(=O)N(C)C)c2)cc1S(=O)(=O)N1CCCCCC1 | -12 | 6.9 | nt | nt | nt
COc1ccc(C)c2sc(N(CCCN(C)C)C(=O)CS(=O)(=O)c3ccc(F)cc3)nc12 | -2 | 0.4 | nt | nt | nt
CCC(C)(C)NC(=O)C(c1cccs1)N(C(=O)c1ccn[nH]1)c1cccc(OC)c1 (stereo unspecified) | -4 | 0.5 | -2% | 6 | nt
CCc1ccc(NC(=O)CN(c2ccc(OC)cc2)S(=O)(=O)c2c(C)[nH]c(=O)[nH]c2=O)cc1 | -2 | 5.4 | nt | nt | nt
C=CCNC(=O)c1onc(CSc2cccc(Cl)c2)c1C(=O)O | -5 | -0.5 | -6% | 7 | 3
CN(C)c1ccc(/C=N/NC(=O)CCCO)cc1 | -1 | -3.8 | -2% | 8 | nt
COC(=O)c1sccc1NC(=O)Nc1ccc(Cl)c(Cl)c1 | -2 | 0.4 | -5% | 11 | -42
CCOc1ccc(NCCC#N)cc1 | -1 | -1.1 | 4% | -1 | 5
C=CCn1c(=O)c2c3c(sc2n2c(Nc4ccc(C(=O)OCC)cc4)nnc12)CCCC3 | 13 | 1.8 | -2% | -1 | 7
CC(C)COP(=O)(c1ccc(N(C)C)cc1)C(O)c1ccncc1 (stereo unspecified) | 2 | -4.0 | -9% | -2 | -15
CCC(Sc1ccc2nnc(-c3cccnc3)n2n1)C(=O)OC (stereo unspecified) | -4 | -2.4 | 0% | 12 | nt
CCOc1ccc2[nH]c3c(=O)n(CCc4ccc(OC)cc4)cnc3c2c1 | -6 | 3.5 | 0% | nt | nt
O=C1C=C(NCC2CCCO2)CC(c2ccccc2)C1 (stereo unspecified) | nt | -2.5 | -5% | 2 | -19
CC(C)(C)C(=O)/C(C#N)=C/c1ccc(O)cc1 | 1 | 4.3 | -5% | 7 | nt
CCOc1ccccc1NC(=O)NNC(=O)COc1cccc(C)c1C | 5 | -1.0 | nt | nt | nt
Cc1ccc(C(=O)NCCn2c(N)c(C#N)c3nc4ccccc4nc32)cc1 | ? | -1.5 | 1% | -10 | -16
Cc1ccc(C(=O)n2nc(-c3ccccc3)nc2NCc2ccco2)cc1 | -5 | 5.6 | 7% | 7 | 4
CCc1ccc(CCC(=O)Nc2sc(C)c(C)c2C(=O)OC)o1 | 70 | 10 | -2% | 9 | -12
COc1ccccc1N1C(=O)NC(=O)C(CCc2ccncc2)(CCc2ccncc2)C1=O | -2 | -1.8 | 1% | 4 | -19
C=CCn1c(SCC(=O)Nc2cc(C)c(Cl)cc2OC)nnc1-c1ccco1 | -19 | 1.9 | 2% | -9 | -53
O=S(=O)(NCCc1ccccc1)c1ccc(F)cc1 | 2 | 3.1 | nt | nt | nt
COc1cccc(NS(=O)(=O)c2ccc3c(c2)CCN3C(C)=O)c1 | -3 | 2.9 | nt | nt | nt
CCC(CC)C(=O)c1c[nH]c(C(=O)NCCCN2CCOCC2)c1 | -13 | -5.5 | nt | 6 | -16
CCN(CC)S(=O)(=O)c1ccc(Cl)c(NC(=O)c2cc(Cl)cc(Cl)c2)c1 | 4 | 0.7 | 3% | -8 | -15
COc1ccccc1NC(=O)c1nn(-c2ccc(F)c(F)c2)ccc1=O | -9 | 0.0 | -7% | 0 | -34
Later entries.
SMILES | Mtb betalactam | RecA intein inh | Mtb H37Rv | Arbovirus anti | YopH PTP inh | others
CCn1cc(Cl)c(C(=O)NNC(=O)CCn2nc(C)c([N+](=O)[O-])c2C)n1 | 0 | -0.6 | -8% | 9 | -11
Cc1cc(F)c(F)c(C(=O)N2CCCCC2C)c1Cl (stereo unspecified) | 3 | 1.4 | nt | 11 | nt
COc1ccc(C(=O)CSc2nnc(CNC(=O)c3ccc(OC)c(OC)c3)n2C)cc1 | -8 | -0.7 | 0% | 6 | 3
COCCn1c(N)c(N(Cc2ccccc2)C(=O)CSCC(=O)Nc2ccc(OC)cc2)c(=O)[nH]c1=O | -12 | -1.3 | nt | nt | nt
Cc1cccc(-n2nnc(C(=O)Nc3ccc(F)cc3)c2N)c1 | 11 | 0.5 | 2% | 0 | -41
O=C(NCCCN1CCCC1=O)NC12CC3CC(CC(C3)C1)C2 | -3 | 0.8 | -6% | 5 | 0
N#CCCN(CCC#N)C(=O)COc1ccc(Cl)cc1Cl | 8 | -2.6 | -5% | 5 | 1
CC1CCCCC1NS(=O)(=O)c1ccc(S(=O)(=O)N2CCN(CCC#N)CC2)cc1 (stereo unspecified) | 2 | 2.6 | -14% | 1 | -35 | Arbovirus anti repeat=8
C=CCNC(=S)NNC(=O)C(CCCC)CC(C)O (stereo unspecified) | -5 | 4.8 | -7% | 3 | 11
CCN(C(=O)CC(C)C)c1nnc(Cn2nnc3ccccc32)s1 | -8 | -4.4 | 3% | 10 | nt
O=C(COC(=O)C1CCN(c2ccc(C(F)(F)F)cn2)CC1)Nc1ccc(F)cc1[N+](=O)[O-] | -7 | -2.5 | nt | nt | nt
O=C1OC(/C(=C\Nc2ccc(F)cc2F)[N+](=O)[O-])c2ccccc21 (stereo unspecified) | 2 | -4.8 | 6% | 2 | nt
CCOc1ccc(S(=O)(=O)N(C)CC(=O)NC2CC2)cc1 | 2 | 17 | nt | nt | nt
CCN1CNC(=S)N(c2cccc(C)c2)C1 | 23 | 0.7 | 7% | nt | nt
Cc1onc(-c2ccccc2)c1C(=O)NNC(=S)NC(=O)c1ccc2c(c1)OCO2 | -2 | 16 | 61% | nt | nt
COC(=O)CSc1nnc(-c2ccc(OC)c(OC)c2)o1 | 94 | -5.2 | 1.4µM* | -1 | nt
O=C(Nc1cccnc1Cl)c1cc(-c2ccco2)on1 | 96 | 0.1 | 7% | 12 | -4
C/C(N)=C(\C#N)C(=O)NCCc1ccccn1 | -10 | -1.7 | 2% | 2 | 6
CCOc1ccccc1C(=O)NN1C(=O)C2CCCCC2C1=O (stereo unspecified) | 1 | -0.4 | -8% | -6 | -46
COc1cc(OC)cc(C(=O)N2CCC(C(=O)Nc3ccc4c(c3)OCCO4)CC2)c1 | 2 | -1.6 | 0% | 7 | -12
COc1ccccc1CNC(=O)C1CCN(S(=O)(=O)c2ccc3c(c2)OCCO3)CC1 | 4 | 3.1 | nt | nt | nt
CCCN(C(=O)CSc1nc2c(cnn2-c2ccccc2)c(=O)[nH]1)C1CCS(=O)(=O)C1 (stereo unspecified) | -5 | -0.7 | -8% | 2 | -36
COc1ccc(/C=C/c2n[nH]c(=O)c(C#N)c2C)cc1 | -11 | 2.3 | nt | nt | nt
O=C(CCCN=C1NS(=O)(=O)c2ccccc21)OCC(=O)c1ccc(F)cc1 | -3 | -0.9 | nt | nt | nt
O=C(c1cccc(Br)c1)N1CCN(c2ccccn2)CC1 | -1 | 0.8 | nt | nt | nt
COc1ccccc1N1CCN(C(=O)c2cc(-c3ccc(Cl)c(Cl)c3)on2)CC1 | ? | -0.5 | -4% | 3 | -16
Oc1[nH]c2ccccc2c1C=Nc1ccc2c(c1)OCCO2 | nt | -0.7 | 6% | 3 | -10
Oc1ccc(/C=N/n2c(-c3ccccc3)n[nH]c2=S)cc1 | 0 | -0.3 | nt | nt | nt
CC(=O)Nc1cc(NC(C)=O)cc(C(=O)OCC(=O)N2CC(C)OC(C)C2)c1 (stereo unspecified) | -1 | nt | -5% | 9 | -25
